CDC25B-CDK2 inh = human CDC25B-CDK2/CyclinA binding inhibition. P30305+P24941. HTRF CDC25B-CDK2/CyclinA binding, anti-His/anti-Flag; active compounds read high. z-score (concentration not given with the values). 94,000 tested, 0.72% active;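 further: score is relative to mean and SD of negative controls; strong numbers were not always called active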
HIV TAR-Tat = HIV-1 TAR-Tat binding disruption; z-score (concentration not given with the values); HIV-1 TAR RNA, Tat peptide displacement FRET; active compounds read high; 100,000 tested, 0.6% active;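 further: score is relative to mean and SD of negative controls; some compounds called inactive have numbers as strong as hits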
* hit, by the source's call.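 How the source made its calls: active means z-score from 3 up in half or more of its runs; inactive means the rest.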

Start of the listing, in advance, 4 compounds:
Screening CC(=O)N1N=C(COc2ccc(Cl)cc2C)OC1c1ccc(Br)cc1 (configuration not stated) returned HIV TAR-Tat 0.3.
Screening O=C(CSc1nnc2ccc3ccccc3n12)Nc1ccccc1 returned CDC25B-CDK2 inh -0.94 and HIV TAR-Tat 0.8.
Screening CCOC(=O)N1CCN(C(=O)C2CCN(C(=O)c3cc4sccc4n3CC)CC2)CC1 returned CDC25B-CDK2 inh -0.38 and HIV TAR-Tat -0.08.
Screening COC(=O)c1sccc1NC(=O)c1c2c(nc3ccccc13)C(=O)N(C1CCCCC1)C2 returned HIV TAR-Tat 1.09.

Results, from the start:
Screening CC(=O)N1N=C(COc2ccc(Cl)cc2C)OC1c1ccc(Br)cc1 (configuration not stated) returned HIV TAR-Tat 0.3.
Screening O=C(CSc1nnc2ccc3ccccc3n12)Nc1ccccc1 returned CDC25B-CDK2 inh -0.94 and HIV TAR-Tat 0.8.
Screening CCOC(=O)N1CCN(C(=O)C2CCN(C(=O)c3cc4sccc4n3CC)CC2)CC1 returned CDC25B-CDK2 inh -0.38 and HIV TAR-Tat -0.08.
Screening COC(=O)c1sccc1NC(=O)c1c2c(nc3ccccc13)C(=O)N(C1CCCCC1)C2 returned HIV TAR-Tat 1.09.
For Cc1cccc(N2CCN(c3cc(C(=O)O)c4cc(N)ccc4n3)CC2C)c1 (configuration not stated) the results were HIV TAR-Tat 6.55*.
O=C(c1noc2c1CSc1ccccc1-2)N1CCCc2ccccc21 was read as CDC25B-CDK2 inh -0.23 and HIV TAR-Tat 0.21.
For CC(=O)Nc1ccc(C(F)(F)F)cc1Cl the results were CDC25B-CDK2 inh -2.21.
`O=C(c1ccccc1)c1cn(Cc2ccccc2F)c2ccccc2c1=O` gave CDC25B-CDK2 inh 1.59 and HIV TAR-Tat 0.99.
For COc1cccc(C2c3c(-c4ccccc4O)n[nH]c3C(=O)N2CC2CCCO2)c1 (configuration not stated) the results were CDC25B-CDK2 inh -0.41 and HIV TAR-Tat 0.01.
For N#Cc1cnn(-c2ccc(F)cc2)c1 the results were CDC25B-CDK2 inh -0.46 and HIV TAR-Tat -0.57.
Cc1cc(C)c2c(=O)n(-c3ccccc3)[nH]c2n1 was read as CDC25B-CDK2 inh -2.65 and HIV TAR-Tat 1.39.
`O=C(c1noc2ncnc(N3CCCC3)c12)N1CCN(c2ccc(F)cc2)CC1` gave HIV TAR-Tat 0.54.
Cc1cc2c(cc3c(SCc4nc(-c5cccc(Cl)c5)oc4C)nncn32)o1 was read as HIV TAR-Tat 3.21.
For CC(=O)OC1CCC2C3CCc4cc(O)ccc4C3CCC12C (configuration not stated) the results were HIV TAR-Tat 2.19.
Screening CCOC(=O)C1CCN(S(=O)(=O)c2c(C(=O)N3CCC(C)CC3)c(C)n(C)c2C)CC1 returned HIV TAR-Tat 0.85.
For CCC(=O)n1nc(C)c(S(=O)(=O)N2CCc3ccccc3C2)c1C the results were HIV TAR-Tat -0.04.
COc1ccc(-c2csc3ncnc(NCCCN4CCOCC4)c23)cc1 was read as HIV TAR-Tat 1.8.
`CCOC(=O)C1CCN(S(=O)(=O)c2ccc3c(c2)NC(=O)CS3)CC1` gave HIV TAR-Tat 1.69.
Screening O=C(c1cc(=O)c2ccccc2o1)N1CCN(C(c2ccccc2)c2ccccc2)CC1 returned CDC25B-CDK2 inh -1.4 and HIV TAR-Tat -0.83.
For CC1(C)CC(=O)C2=C(C1)OC(c1cccs1)C(C#N)=C2N (configuration not stated) the results were CDC25B-CDK2 inh -0.9 and HIV TAR-Tat -0.75.
O=c1[nH]c2ccccc2n1Cc1ccccc1Cl was read as CDC25B-CDK2 inh -2.39 and HIV TAR-Tat 1.47.
CCCCN(Cc1cc2cc(C)ccc2[nH]c1=O)S(C)(=O)=O was read as CDC25B-CDK2 inh -0.73 and HIV TAR-Tat 0.75.
Screening CCN(CC)c1sc(S(=O)(=O)CC)nc1S(=O)(=O)c1ccc(C)cc1 returned CDC25B-CDK2 inh -2.12 and HIV TAR-Tat 2.13.
Screening CCOC(=O)c1cnn(-c2nc(C)nc3c2cnn3-c2ccccc2)c1N returned CDC25B-CDK2 inh 0.22 and HIV TAR-Tat 1.12.
For CC(CS(=O)(=O)c1ccc2c(c1)NC(=O)C(C)S2)C(=O)N1CCc2ccccc21 (configuration not stated) the results were HIV TAR-Tat -1.07.
For Nc1ccc(-c2cc(C(=O)O)c3ccccc3n2)cc1 the results were CDC25B-CDK2 inh -1.84 and HIV TAR-Tat 0.47.
`FC(F)(F)c1cc(-c2csnn2)cc(C(F)(F)F)c1` gave CDC25B-CDK2 inh -1.63.
`CCN1C(=O)C2(c3ccccc31)c1c(oc3cc(C)c(C)cc3c1=O)C(=O)N2CCCOC(C)C` (configuration not stated) gave CDC25B-CDK2 inh -1.81 and HIV TAR-Tat 1.19.
Screening CCOC(=O)CSc1nc(N2CCCCC2)c2c(c1C#N)CCCC2 returned CDC25B-CDK2 inh -0.71 and HIV TAR-Tat 1.12.
Screening CCOC(=O)CNC(=O)c1cc([N+](=O)[O-])ccc1Oc1ccc(OC)cc1 returned CDC25B-CDK2 inh -0.5.
For CCCc1nn2c(=O)cc(CSc3n[nH]c(C)n3)nc2s1 the results were HIV TAR-Tat 1.1.
For Cc1cc(C)c(NS(=O)(=O)c2ccc(-c3coc(C)n3)cc2)c(C)c1 the results were HIV TAR-Tat 1.41.
For O=C(Nc1c[nH]c(=O)[nH]c1=O)c1cccc(Br)c1 the results were CDC25B-CDK2 inh -1.93 and HIV TAR-Tat 0.6.
Screening CSc1nnc(SC)n1/N=C(/N)c1cccc(C(F)(F)F)c1 returned CDC25B-CDK2 inh -0.95.
CC(=O)c1ccc(O)c(CC=C(C)C)c1 was read as HIV TAR-Tat 2.15.
For CC1=NN(c2nc(-c3ccc(Cl)cc3)cs2)C(=O)/C1=C\c1ccc2c(c1)OCO2 the results were CDC25B-CDK2 inh 6.93*.
`O=C1c2[nH]nc(-c3ccccc3O)c2C(c2ccccc2)N1Cc1ccco1` (configuration not stated) gave CDC25B-CDK2 inh -0.18 and HIV TAR-Tat 2.23.
For CC(=O)c1ccc(OCC(O)CN2CCN(C(c3ccccc3)c3ccccc3)CC2)cc1 (configuration not stated) the results were CDC25B-CDK2 inh 0.59.
`COc1ccc(NS(=O)(=O)c2cc3c4c(c2)CC(=O)N4CCC3)cc1Cl` gave HIV TAR-Tat 1.14.
Screening CNC(=O)c1cc2c(oc1=O)CC(C)(C)CC2=O returned CDC25B-CDK2 inh 0.76 and HIV TAR-Tat 0.55.
`CC(C)OCCCNC(=O)CCC1=NS(=O)(=O)c2ccccc2N1` gave HIV TAR-Tat -0.16.
CC1CC(C)CN(C(=O)CN2C(=O)c3ccccc3S2(=O)=O)C1 (configuration not stated) was read as CDC25B-CDK2 inh -0.95.
COc1ccc(-c2onc(C)c2C)cc1S(=O)(=O)NCc1cccnc1 was read as HIV TAR-Tat 0.72.
Screening O=C(O)c1ccc(Cl)c(-n2cnc3cccnc32)c1 returned CDC25B-CDK2 inh -0.32 and HIV TAR-Tat -0.25.
Screening Cn1c(=O)c2c(-c3cccc(Br)c3)n(Cc3ccccc3)cc2n(C)c1=O returned CDC25B-CDK2 inh -0.65 and HIV TAR-Tat 1.3.
`O=c1c2ccccc2nc2n1CCS2(=O)=O` gave CDC25B-CDK2 inh -1.52.
CCCCOc1ccc(S(=O)(=O)NCc2ccc3c(c2)OCO3)cc1 was read as CDC25B-CDK2 inh -0.62.
For CCCN1C(=O)C2(/C(=C(/O)c3ccccc3)C(=O)C(=O)N2CCCOC)c2ccccc21 (configuration not stated) the results were CDC25B-CDK2 inh -0.09 and HIV TAR-Tat 0.89.
For O=C(c1noc2c1COc1ccccc1-2)N1CCN(c2cccc(Cl)c2)CC1 the results were CDC25B-CDK2 inh -0.85 and HIV TAR-Tat 0.47.
CSc1cccc(NC(=O)Nc2nc3ccc(S(C)(=O)=O)cc3s2)c1 was read as CDC25B-CDK2 inh 0.78 and HIV TAR-Tat -0.16.
Screening CCC(Cn1nnc2ccccc2c1=O)NC(=O)Nc1ccccc1Cl (configuration not stated) returned CDC25B-CDK2 inh 0.72 and HIV TAR-Tat 1.31.
Screening CCCCN1C(C)=NS(=O)(=O)c2cc(C(=O)NCC3CCCO3)ccc21 (configuration not stated) returned HIV TAR-Tat -0.43.
Cc1c(C)n(-c2ccccc2Br)c2ncn3nc(-c4ccco4)nc3c12 was read as CDC25B-CDK2 inh -0.98 and HIV TAR-Tat -1.47.
For O=S1(=O)C[C@H](NC2CCCCC2)[C@@H](S(=O)(=O)c2ccc(F)cc2)C1 the results were CDC25B-CDK2 inh -1.35 and HIV TAR-Tat -1.83.
`Cc1ccc(N2C(=O)C3CCCN3C2=S)cc1Cl` (configuration not stated) gave CDC25B-CDK2 inh -1.15.
`O=C(O)C1=CC(c2ccc(O)cc2)n2nnnc2N1` (configuration not stated) gave HIV TAR-Tat 1.11.
For Cc1noc(/C=C/c2cccs2)c1S(=O)(=O)N1CCC(C(=O)NC2CCCCC2)CC1 the results were CDC25B-CDK2 inh -1.8 and HIV TAR-Tat 2.09.
Screening CCN(CC)CCNC(=O)CN1C(=O)COc2ccc(S(=O)(=O)N3CCOCC3)cc21 returned CDC25B-CDK2 inh 0.48.
For Nc1cccc(-c2nc3ccccc3o2)c1 the results were CDC25B-CDK2 inh -2.46 and HIV TAR-Tat 1.11.
Screening Nc1cc(C(=O)O)ccc1N1CCOCC1 returned HIV TAR-Tat 2.84.
Cc1ccc(C2=CC(c3ccccc3)n3ncnc3N2)cc1 (configuration not stated) was read as CDC25B-CDK2 inh -2.05 and HIV TAR-Tat 1.62.
CN1CCN(CCCNC(=O)CCCN2C(=O)c3cccnc3Sc3ccccc32)CC1 was read as HIV TAR-Tat 0.92.
`O=C(c1ccco1)N1CCN(Cc2ccc3c(c2)OCO3)CC1` gave CDC25B-CDK2 inh -0.68 and HIV TAR-Tat -1.91.
For CC1(C)Cc2c(sc3[nH]c(=O)n(CC(=O)O)c(=O)c23)CO1 the results were CDC25B-CDK2 inh -1.78 and HIV TAR-Tat -0.77.
For COc1ccc(-c2ccc(CNCCCSc3nnnn3C)o2)cc1Cl the results were CDC25B-CDK2 inh 0.84 and HIV TAR-Tat 0.94.
For CCOC(=O)N1CCC(Nc2c(N3CCc4ccccc43)c(=O)c2=O)CC1 the results were CDC25B-CDK2 inh -2.91 and HIV TAR-Tat -0.6.
CCCOC(=O)C(CC)Oc1ccc2c(=O)c(Oc3ccc(OC)cc3)coc2c1 (configuration not stated) was read as CDC25B-CDK2 inh -0.13 and HIV TAR-Tat 1.21.
O=C(CSC1=Nc2ccccc2C2=NC(c3ccccc3)C(=O)N12)NCc1ccco1 (configuration not stated) was read as CDC25B-CDK2 inh -2.78.
`CN(CCC#N)c1ccc(/C=C2/NC(=O)NC2=O)cc1` gave CDC25B-CDK2 inh -0.32.
For O=C(Cn1cc(SCc2ccccc2)c2ccccc21)N1CCCC1 the results were HIV TAR-Tat -0.63.
For CCn1cc(CN(C(=O)Nc2ccccc2)C(C)C)c2ccccc21 the results were CDC25B-CDK2 inh -1.56.
CCN1C(=O)C2(c3ccccc31)c1c(oc3ccc(F)cc3c1=O)C(=O)N2CC1CCCO1 (configuration not stated) was read as CDC25B-CDK2 inh -0.94 and HIV TAR-Tat 1.25.
Screening CCc1ccc(S(=O)(=O)c2nnn3c2nc(N2CCOCC2)c2ccccc23)cc1 returned CDC25B-CDK2 inh -1.56 and HIV TAR-Tat -0.55.
`COc1ccc(C2C(C#N)=C(C)NC3=C2C(=O)CC(c2ccc(Cl)cc2)C3)cc1` (configuration not stated) gave CDC25B-CDK2 inh -0.08 and HIV TAR-Tat -0.2.
Screening CC(C)C(CCC(=O)Nc1nccs1)C(=O)O (configuration not stated) returned CDC25B-CDK2 inh -1.28 and HIV TAR-Tat 3.24.
O=C(CSc1ncnc2c1nnn2-c1ccc(F)cc1)Nc1ccc2c(c1)OCO2 was read as CDC25B-CDK2 inh -0.62.
Screening CCc1ccc(-c2cc(C)no2)cc1S(=O)(=O)Nc1cc(C)cc(C)c1 returned HIV TAR-Tat 0.69.
Cc1c(C2=CCN(S(=O)(=O)c3cccc4nsnc34)CC2)c2ccccc2n1C was read as CDC25B-CDK2 inh -3.05 and HIV TAR-Tat -1.15.
`CN(C)S(=O)(=O)N1CCc2ccccc2C1` gave CDC25B-CDK2 inh -0.89 and HIV TAR-Tat 2.05.
Screening O=c1c2cc3c(cc2nc(SCc2nc(-c4cccc(Cl)c4)no2)n1Cc1ccco1)OCO3 returned HIV TAR-Tat -1.18.

Pulled by structure from the list above (4):
Screening CCc1ccc(-c2cc(C)no2)cc1S(=O)(=O)Nc1cc(C)cc(C)c1 returned HIV TAR-Tat 0.69.
`CN(C)S(=O)(=O)N1CCc2ccccc2C1` gave CDC25B-CDK2 inh -0.89 and HIV TAR-Tat 2.05.
Cc1c(C2=CCN(S(=O)(=O)c3cccc4nsnc34)CC2)c2ccccc2n1C was read as CDC25B-CDK2 inh -3.05 and HIV TAR-Tat -1.15.
Screening CC(C)C(CCC(=O)Nc1nccs1)C(=O)O (configuration not stated) returned CDC25B-CDK2 inh -1.28 and HIV TAR-Tat 3.24.

(next part)
Cc1ccc(C(=O)Nc2cnc3sc(C(C)C)nn3c2=O)cc1 was read as CDC25B-CDK2 inh -1.26 and HIV TAR-Tat -0.63.
CC(C)(C(=O)O)c1ccc(C(O)CCCN2CCC(C(O)(c3ccccc3)c3ccccc3)CC2)cc1 (configuration not stated) was read as CDC25B-CDK2 inh -1.1.
`O=C(CC1SC(N2N=C(c3cccs3)CC2c2ccccc2)=NC1=O)Nc1ccccc1` (configuration not stated) gave HIV TAR-Tat 0.93.
`CCc1c(CN2CCN(Cc3ccc4c(c3)OCO4)CC2)csc1C` gave HIV TAR-Tat 1.86.
Screening CCCCc1ccc(NC(=O)N=S2CCN(C(=O)c3ccc(Cl)cc3)CC2)cc1 returned CDC25B-CDK2 inh -1.1.
`COc1ccc(-n2cnc3cc(NCc4ccco4)ccc32)cc1` gave CDC25B-CDK2 inh -1.6 and HIV TAR-Tat 1.42.
`O=C(CN1N=NC2C(=O)N(c3ccc(F)c(F)c3)C(=O)C21)Nc1ccc(Cl)cc1` (configuration not stated) gave HIV TAR-Tat 1.08.
Screening Fc1ccccc1-c1noc(N2CCN(c3ccccn3)CC2)n1 returned HIV TAR-Tat 0.73.

High-throughput results (PubChem)
